Source: PubChem
Arbovirus inh: blocks arbovirus infection | arbovirus infection cell-based antiviral screen | inhibition, % at 10 µM | hit rate 0.37% among 200,000;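 active means inhibition from about 30%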;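 further: bluetongue infection of BSR cells; cell survival read as ATP light after 72 h; 0% = infected wells without compound and 100% = uninfected wells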
Mtb growth: M. tuberculosis H37Rv growth inhibitors, H37Rv strain (AID 1626). hit rate 0.95% among 220,000. inhibition, % at 10 µM; hits with a dose series show IC50 in µM. M. tuberculosis H37Rv growth inhibition; higher % means a stronger effect;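 active means confirmed in a dose series; inconclusive means inhibition above 80% but not taken into the dose series; inactive means below 80% or under 30% at every dose of the series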;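 further: bacteria incubated seven days before Alamar blue readout; 0% = bacteria only wells and 100% = bacteria with antibiotic wells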
RecA intein inh: Mtb RecA intein splicing inhibition; AID 2221; P9WHJ3; hit rate 0.75% among 290,000; cell-free RecA intein splicing, fluorescence; inhibition, %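 (about 9 µM by stock and volumes)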; in the data active means inhibition above about 30%; inconclusive means no clear call, values can overlap the other calls;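 further: 0% = vehicle wells and 100% = reference inhibitor control wells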
Target sequence (P9WHJ3 whole entry, looked up): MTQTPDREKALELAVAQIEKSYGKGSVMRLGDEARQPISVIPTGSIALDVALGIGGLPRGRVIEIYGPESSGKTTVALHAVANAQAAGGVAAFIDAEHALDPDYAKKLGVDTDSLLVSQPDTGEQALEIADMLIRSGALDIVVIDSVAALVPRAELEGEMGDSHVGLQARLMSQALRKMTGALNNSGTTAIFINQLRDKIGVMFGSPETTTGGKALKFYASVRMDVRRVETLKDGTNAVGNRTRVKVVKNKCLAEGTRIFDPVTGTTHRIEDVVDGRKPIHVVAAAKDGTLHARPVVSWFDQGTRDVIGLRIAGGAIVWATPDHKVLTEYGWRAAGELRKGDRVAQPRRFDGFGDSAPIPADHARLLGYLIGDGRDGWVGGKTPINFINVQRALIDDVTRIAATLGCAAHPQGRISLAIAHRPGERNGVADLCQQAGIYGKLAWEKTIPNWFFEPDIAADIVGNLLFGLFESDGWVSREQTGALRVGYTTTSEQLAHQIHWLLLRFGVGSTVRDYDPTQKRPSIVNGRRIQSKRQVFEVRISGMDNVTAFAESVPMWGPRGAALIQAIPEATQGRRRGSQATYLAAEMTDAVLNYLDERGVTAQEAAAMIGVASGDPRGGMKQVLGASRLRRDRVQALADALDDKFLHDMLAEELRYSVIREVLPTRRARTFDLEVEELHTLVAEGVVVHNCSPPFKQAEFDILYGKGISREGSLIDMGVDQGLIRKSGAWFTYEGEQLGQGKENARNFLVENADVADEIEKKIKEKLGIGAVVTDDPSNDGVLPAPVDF
Mtb bLac sens: beta-lactam sensitization of Mtb H37Rv; M. tuberculosis H37Rv growth with meropenem, percent inhibition; hits of this screen are not shown here; inhibition, % at 25 µM; hit rate 0.27% among 330,000;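 active means about 74% or more and at least 40 points above the plate without the antibiotic, then above 30% in a dose series; inconclusive means first-round hits that could not be retested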;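 further: growth measured after seven days incubation then overnight dye step; 0% = bacteria only wells and 100% = bacteria with antibiotic; twin plates without the antibiotic show which effects depend on it; some results filed as inactive read as strong as hits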
YopH PTP inh: blocks Yersinia enterocolitica YopH tyrosine phosphatase. fluorescence Ex485/Em525. inhibition, %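 (about 10 µM by stock and volumes)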. hit rate 0.16% among 140,000;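 active means inhibition of 50% or more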;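 further: controls were vehicle for no effect and minimum signal wells for full effect; inactives centre near -20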
Arbovirus inh repeat: further read-out of Arbovirus inh, marked with its call; inhibition, %; measured here: 10K subset replicate screen; many hits read low in the repeat;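 first of two repeat runs on a subset; 0% = infected and 100% = uninfected wells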
* = called active by the depositor. These rows are one share of the data; rates above refer to the full screens.

For O=C(NCCCN1CCOCC1)c1ccc2c(=O)n(Cc3cccc(Br)c3)c(=S)[nH]c2c1 the results were RecA intein inh 7.4 and Mtb bLac sens -4.0.
Screening COc1ccc2[nH]cc(C(=O)CN3CCN(C(=O)c4ccco4)CC3)c2c1 returned Arbovirus inh 5.7, Mtb growth -7.0%, RecA intein inh -2.4, Mtb bLac sens -8.2 and YopH PTP inh -20.7.
Cc1ccc(N2C(=O)/C(=C/c3ccco3)SC2=S)cc1 was read as Arbovirus inh -10.4, Mtb growth 8.3%, RecA intein inh 1.4, Mtb bLac sens -0.6 and YopH PTP inh -24.8.
`CCC(=O)N(Cc1cc(=O)[nH]c2ccccc12)C1CCCCC1` gave Arbovirus inh 0.6, Mtb growth -1.0%, RecA intein inh 9.7, Mtb bLac sens -3.0 and YopH PTP inh -43.1.
For CCC(=O)NC(=S)Nc1ccc(NC(=O)c2ccco2)c(OC)c1 the results were Arbovirus inh -4.2, Mtb growth 16.8%, RecA intein inh -0.8, Mtb bLac sens 71.0 and YopH PTP inh -26.4.
Screening COc1ccccc1N(C)S(=O)(=O)c1ccc(C(=O)OCC(=O)NCCC2=CCCCC2)cc1 returned Arbovirus inh -1.7, Mtb growth -1.3%, RecA intein inh 2.4, Mtb bLac sens 5.0 and YopH PTP inh -23.0.
CCC(C)(C)n1nnnc1C(C(C)C)N(Cc1cccnc1)Cc1ccco1 (stereo not drawn) was read as Arbovirus inh 5.2, Mtb growth -10.6%, RecA intein inh 2.2 and Mtb bLac sens -5.0.
Screening CC(=O)N1CCN(C(=S)NC(=O)c2c(-c3ccccc3Cl)noc2C)CC1 returned Arbovirus inh -3.1, Mtb growth 6.2%, RecA intein inh 5.6 and Mtb bLac sens -3.9.
COc1ccc(-n2cc(CN(C)Cc3n[nH]c(=O)[nH]3)c(-c3cccc(F)c3)n2)cc1 was read as Arbovirus inh 0.3, Mtb growth -0.8%, RecA intein inh 0.2 and Mtb bLac sens 4.4.
`C(=C\c1ccccc1)/CN1CCN(Cc2ccc3c(c2)OCO3)CC1` gave RecA intein inh -1.3 and Mtb bLac sens -9.8.
For O=C(Nc1cccc(-c2cn3cccnc3n2)c1)c1ccc(Br)o1 the results were Arbovirus inh 0.5, Mtb growth -11.7%, RecA intein inh 7.2, Mtb bLac sens inconclusive and YopH PTP inh -17.0.
`O=C(NCc1ccco1)C1c2ccccc2Oc2ccccc21` gave Arbovirus inh -4.0, Mtb growth -5.5%, RecA intein inh -2.4, Mtb bLac sens -2.3, YopH PTP inh -49.2 and Arbovirus inh repeat -4.0.
`Fc1ccccc1-c1nc(NCc2ccco2)c2ccccc2n1` gave Arbovirus inh -6.8, Mtb growth 0.7%, RecA intein inh -1.3 and Mtb bLac sens -2.7.
For COC(=O)C1=C(C(=O)OC)[C@@H]2N(C)c3ccccc3[C@@]23C[C@@H](CO)N=C3N1 the results were Mtb growth -6.8%, RecA intein inh 1.5 and Mtb bLac sens -10.1.
CN(C)c1ccc(/C=N/N=C2/NC(=O)/C(=C/c3ccc([N+](=O)[O-])cc3)S2)cc1 was read as Arbovirus inh 9.7, Mtb bLac sens 3.0 and YopH PTP inh -15.8.
Screening COc1cccc(-c2nn(-c3ccc(C)cc3)cc2C(=O)NCC(c2cccs2)N2CCOCC2)c1 (stereo not drawn) returned RecA intein inh -1.6 and Mtb bLac sens 3.8.
`CCCn1c(C)cc(C(=O)CSc2nc3ccccc3c(=O)n2Cc2ccco2)c1C` gave Arbovirus inh 5.8, Mtb growth 5.1%, RecA intein inh 2.7, Mtb bLac sens -6.5 and YopH PTP inh -34.3.
O=C(NCc1ccc2c(c1)OCO2)c1cccnc1Cl was read as Arbovirus inh -1.6, Mtb growth 13.2%, RecA intein inh -4.2 and Mtb bLac sens 5.1.
For COc1ccc(C)cc1NC(=O)CCN1CC(C)OC(C)C1 (stereo not drawn) the results were Arbovirus inh 1.5, Mtb growth 15.2%, RecA intein inh -4.5 and Mtb bLac sens 1.9.
For CN1CCN(Cc2cccc(Oc3ccccc3)c2)CC1 the results were Arbovirus inh -21.3, Mtb growth -3.2%, RecA intein inh -2.4, Mtb bLac sens -0.8 and YopH PTP inh -5.1.

2 neighbouring records from above, quoted:
For O=C(Nc1cccc(-c2cn3cccnc3n2)c1)c1ccc(Br)o1 the results were Arbovirus inh 0.5, Mtb growth -11.7%, RecA intein inh 7.2, Mtb bLac sens inconclusive and YopH PTP inh -17.0.
`O=C(NCc1ccco1)C1c2ccccc2Oc2ccccc21` gave Arbovirus inh -4.0, Mtb growth -5.5%, RecA intein inh -2.4, Mtb bLac sens -2.3, YopH PTP inh -49.2 and Arbovirus inh repeat -4.0.

(further entries)
Screening NC(=O)C(c1ccc(Cl)cc1)c1ncc(C(F)(F)F)cc1Cl (stereo not drawn) returned Arbovirus inh -1.2, Mtb growth -1.5%, RecA intein inh 0.4, Mtb bLac sens 4.1 and YopH PTP inh -35.1.
Screening COc1ccc(NC(=O)C2CCN(c3nc(C)cc(C)n3)CC2)cc1 returned Arbovirus inh 0.9, Mtb growth -7.6%, RecA intein inh 2.3, Mtb bLac sens -6.4 and YopH PTP inh 27.9.
`CCCCNC(=S)Nc1cc([N+](=O)[O-])ccc1C` gave Arbovirus inh 2.2, Mtb growth -1.4%, RecA intein inh -2.5, Mtb bLac sens -7.2 and YopH PTP inh -33.1.
COc1cc(/C=C2/NC(=O)NC2=O)cc(Br)c1OCc1ccc(C(=O)O)cc1 was read as Arbovirus inh 5.0, Mtb growth 1.6%, RecA intein inh 4.1 and Mtb bLac sens -1.6.
Screening O=[N+]([O-])c1cc(C(F)(F)F)ccc1N/N=C/c1cc2ccccc2nc1Cl returned Arbovirus inh -5.2, RecA intein inh 0.8, Mtb bLac sens -2.9 and YopH PTP inh -30.7.
For CCOc1ccccc1NC(=O)CN1C(=O)COc2ccc(S(=O)(=O)N3CCOCC3)cc21 the results were RecA intein inh -0.2 and Mtb bLac sens -7.9.
`NS(=O)(=O)c1ccc(NC(=O)c2cccc(N3C(=O)c4ccccc4C3=O)c2)cc1` gave RecA intein inh -3.2 and Mtb bLac sens -5.9.
Screening O=C(COC(=O)/C=C/c1cccc(F)c1)Nc1ccccc1-c1ccccc1 returned Arbovirus inh -12.6, Mtb growth 2.2%, RecA intein inh 2.7, Mtb bLac sens 2.9 and YopH PTP inh -16.9.
For O=C(COC(=O)CSc1ccccc1)NNC(=O)c1ccc([N+](=O)[O-])cc1 the results were RecA intein inh -1.1 and Mtb bLac sens -12.6.
`COc1cc(CN2CCN(CC#Cc3ccccc3)CC2CCO)cc(OC)c1` (stereo not drawn) gave RecA intein inh 2.8 and Mtb bLac sens 11.0.
Screening Cc1ccc(C(NC(=O)NCCCN2CCOCC2)=C(Cl)Cl)cc1F returned Arbovirus inh -32.9, Mtb growth -5.3%, RecA intein inh 16.4, Mtb bLac sens -4.1 and YopH PTP inh -1.7.
COc1ccc(C(=O)NC2CC2)cc1OC1CCN(C/C=C/c2ccccc2)CC1 was read as RecA intein inh -0.7 and Mtb bLac sens 11.3.
CCOC(=O)c1c(CN2CCCCC2)n(C)c2cc(Br)c(OC)cc12 was read as Arbovirus inh 0.9, Mtb growth 5.3%, RecA intein inh 1.6, Mtb bLac sens 0.5 and YopH PTP inh -21.5.
`CC(NS(=O)(=O)c1ccc(CCC(=O)NCC2CCCO2)cc1)c1ccccc1` (stereo not drawn) gave Arbovirus inh -1.0, Mtb growth 0.6%, RecA intein inh 3.1, Mtb bLac sens -1.7 and YopH PTP inh 7.9.
For C=CCSc1nnc(NC(=O)c2nc(SCC)ncc2Cl)s1 the results were Arbovirus inh 9.4, Mtb growth -5.2%, RecA intein inh 0.5, Mtb bLac sens 63.2 and YopH PTP inh -23.1.
For Nc1nc(SCC(=O)NC2CCCCCC2)[nH]c(=O)c1-c1ccccc1 the results were Arbovirus inh 10.9, Mtb growth -4.3%, RecA intein inh 0.4, Mtb bLac sens 4.5 and YopH PTP inh -27.6.
Cc1nn(C(C)C(=O)NCCCc2ccccc2)c(=O)c2nn(-c3ccccc3)c(C)c12 (stereo not drawn) was read as RecA intein inh 2.5 and Mtb bLac sens -4.2.
`O=C(NCCNC1CCC(c2ccccc2)CC1)c1ccc(F)cc1` (stereo not drawn) gave Arbovirus inh -25.0, Mtb growth 15.8%, RecA intein inh 0.9 and Mtb bLac sens 3.6.
Screening Cc1ccccc1C(=O)Nc1ccccc1C(=O)NCC(C)C returned Arbovirus inh -2.7, Mtb growth -0.1%, RecA intein inh -1.0 and Mtb bLac sens 5.1.
`COc1ccccc1C(=O)Nc1ccnn1C1CCN(CCCC2CCCC2)CC1` gave RecA intein inh 1.9 and Mtb bLac sens 3.1.
Screening COc1cc(NC(=S)N2CCC(C(O)(c3ccccc3)c3ccccc3)CC2)cc(OC)c1 returned Arbovirus inh -5.8, Mtb growth 4.6%, RecA intein inh 15.0, Mtb bLac sens 3.9 and YopH PTP inh 6.8.
`COC(=O)CCCCC1SCC2NC(=O)NC21O` (stereo not drawn) gave Arbovirus inh 8.5, Mtb growth -12.9%, RecA intein inh -1.0, Mtb bLac sens 2.4 and YopH PTP inh -3.3.
For CC(C)Nc1nc(Oc2ccc(Cl)cc2Cl)cc(C(F)(F)F)n1 the results were Arbovirus inh 1.5, Mtb growth 1.6%, RecA intein inh 0.5, Mtb bLac sens 7.0 and YopH PTP inh -29.1.
For CCOc1ccccc1N(CC(=O)NC1CCCCC1)C(=O)CNC(=O)c1ccco1 the results were Arbovirus inh 7.8, Mtb growth -0.5%, RecA intein inh 0.2, Mtb bLac sens -5.5 and YopH PTP inh -29.1.
`COc1ccc(NCc2nnc(SCc3ccccc3)n2-c2ccc(OC)cc2)cc1` gave Arbovirus inh -19.0, Mtb growth 2.0%, RecA intein inh -3.1, Mtb bLac sens 10.6 and YopH PTP inh -20.4.
COC(=O)c1cc2sc(Cl)cc2n1CC(=O)NCC1CCCO1 (stereo not drawn) was read as Arbovirus inh 2.3, Mtb growth -4.8%, RecA intein inh 1.4, Mtb bLac sens -1.7 and YopH PTP inh -24.6.
NC(Cc1ccccc1)C(=O)N1CCCCC1 (stereo not drawn) was read as RecA intein inh -1.0 and Mtb bLac sens 3.3.
For CCc1nc2cc(C)nn2c2nc3ccccc3n12 the results were Arbovirus inh 1.2, Mtb growth -1.8%, RecA intein inh -0.3, Mtb bLac sens -3.9 and YopH PTP inh -37.8.
`Cc1onc(-c2c(F)cccc2Cl)c1C(=O)Nc1nnc(-c2ccccc2)s1` gave Arbovirus inh 0.2, Mtb growth 3.8%, RecA intein inh 2.4, Mtb bLac sens 6.6 and YopH PTP inh -18.0.
`CNS(=O)(=O)c1cccc(C(=O)OCC(=O)N2CCCC2)c1` gave RecA intein inh 3.9 and Mtb bLac sens -0.1.
Screening Cc1ccc(NC(=O)C2C3CCCC2C3c2ccccc2)cc1 (stereo not drawn) returned Arbovirus inh -5.7, Mtb growth -2.2%, RecA intein inh -1.3, Mtb bLac sens -5.0 and YopH PTP inh -20.5.
Screening O=C(CCc1nc2ccccc2c(=O)[nH]1)NCc1ccccn1 returned Arbovirus inh 1.2, Mtb growth 1.4%, RecA intein inh -0.7 and Mtb bLac sens -3.6.
For CN(C)C(=O)C(NC(=O)c1ccccc1)=C(Cl)Cl the results were Arbovirus inh 2.2, Mtb growth -12.8%, RecA intein inh -4.1 and Mtb bLac sens 6.6.
`COCCN=C1N[C@@H](c2ccccc2)C(C(=O)OC)=C(C)N1Cc1ccccc1` gave RecA intein inh 3.7 and Mtb bLac sens -4.4.
O=C(Nc1nc2ccc(S(=O)(=O)N3CCCC3)cc2s1)C1CCCCC1 was read as Arbovirus inh -17.3, RecA intein inh -5.8, Mtb bLac sens 67.3 and YopH PTP inh -27.7.
For COc1ccc2nc3ccccc3nc2c1N the results were Mtb growth 21.1%, RecA intein inh 64.0* and Mtb bLac sens 10.8.
`CCOC(=O)N1CCN(C(=O)CN(C)S(=O)(=O)c2ccc(Cl)cc2)CC1` gave RecA intein inh 0.6 and Mtb bLac sens -0.9.
For CCCn1c(=S)[nH]c2ccccc2c1=O the results were Arbovirus inh -2.9, Mtb growth 2.8%, RecA intein inh -1.8 and Mtb bLac sens 0.8.
O=C(/C=C/c1ccco1)NC(=S)N1CCCCC1 was read as RecA intein inh -3.2 and Mtb bLac sens 0.2.
`O=C(Nc1cccc(Cl)c1)c1ccc(F)c(S(=O)(=O)NCc2ccc3c(c2)OCO3)c1` gave Arbovirus inh -15.0, Mtb growth 7.8%, RecA intein inh 17.8, Mtb bLac sens 2.1 and YopH PTP inh -11.8.
CC(C)Cn1c(S(=O)(=O)O)nc2ccccc21 was read as Mtb growth -1.0%, RecA intein inh -0.8 and Mtb bLac sens 6.1.
`CNC(=O)c1ccc(-c2ccc(Cl)c(Cl)c2)s1` gave Arbovirus inh -7.0, Mtb growth 14.5%, RecA intein inh 4.1 and Mtb bLac sens 13.4.
`O=C(c1cc(COc2ccccc2)on1)N1CCCC(CN2CCOCC2)C1` (stereo not drawn) gave RecA intein inh -1.0 and Mtb bLac sens 7.8.
